Source: PubChem BioAssay (National Center for Advancing Translational Sciences (NCATS))
Cruzain Triton = blocks cruzain activity in presence of Triton detergent; P25779; purified cruzain, Z-FR-AMC fluorescence, 0.01% Triton; Potency, µM, without a hit: max response, negative = inhibition, most hits filed as inhibitors; hit rate 0.43% among 200,000;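 further: plate controls were neutral wells for no effect and buffer without enzyme for full effect; nearly all actives have a fitted effect of over 40% in size; top concentration of the series not given in the record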
Target sequence (P25779 123-467 limits assumed): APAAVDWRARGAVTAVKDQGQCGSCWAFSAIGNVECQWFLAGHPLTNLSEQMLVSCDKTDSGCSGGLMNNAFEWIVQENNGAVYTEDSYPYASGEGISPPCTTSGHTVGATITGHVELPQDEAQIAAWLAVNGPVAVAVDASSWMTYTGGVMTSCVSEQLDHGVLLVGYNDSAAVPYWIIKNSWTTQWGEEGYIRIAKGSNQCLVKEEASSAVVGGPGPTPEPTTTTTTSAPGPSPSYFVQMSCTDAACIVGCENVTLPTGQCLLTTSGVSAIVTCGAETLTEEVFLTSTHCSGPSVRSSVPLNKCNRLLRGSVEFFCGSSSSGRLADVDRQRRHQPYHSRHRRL
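In this qHTS format, compounds are incubated with 1.5 nM cruzain for 15 min at room temperature before 2 uM Z-FR-AMC is added. Release of AMC is followed at 360/450 nm, and progress is taken as the 60 s fluorescence difference.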
SARS PLpro yeast = SARS-CoV PLP inhibition in yeast; S. cerevisiae expressing SARS-CoV PLpro, growth rescue; control for the full effect not named in the record; Potency, µM (titrated, usually from 32.9 µM), inactives show top-dose activity, positive = growth rescue; hit rate 0.19% among 330,000; active means well fitted rising curve with a large enough effect; inconclusive means small, poorly fitted or top-dose-only effect; inactive means no such curve, though single readings can be large or run the other way; further: 0% is about no effect; nearly all actives have a fitted effect of over 55% in size; growth read by luminescence after 48 h
StopGo reporter = lowers the luciferase signal of an FMDV 2A StopGo reporter; human cells with a luciferase reporter of 2A StopGo recoding; control for the full effect not named in the record; Potency, µM (top dose mostly 57.9 µM), without a hit: top-dose signal change, negative = less light; hit rate 1.2% among 410,000; AID 1159524; active = well fitted falling curve with a large enough effect; inconclusive = small, poorly fitted or top-dose-only effect; inactive = no such curve, though single readings can be large or run the other way; tested in HEK293T cells; further: on the % scale 0 is the no-effect control and ±100 the full control effect; nearly all actives have a fitted effect of over 45% in size; luciferase light after 4 h
Marburg entry inh = Marburg virus entry inhibition | Marburg virus pseudotyped entry inhibition, cell reporter; control for the full effect not named in the record; about a third of the inactives were read at about 46 µM | Potency, µM (series often up to 37.8 µM), for the others: at the highest dose activity change, negative = inhibition, most hits filed as inhibitors | hit rate 1.8% among 300,000 | AID 540276; active = well fitted inhibition curve with a large enough effect; inconclusive = small, poorly fitted or top-dose-only effect, or effect the other way; inactive = flat fitted curve, though single readings scatter; tested in HEK293 cells; about a fifth of its hits are not listed in these tables; further: on the % scale 0 is the no-effect control and ±100 the full control effect; luciferase read-out
LASV entry inh = Lassa virus entry inhibition; Potency, µM (doses to about 37.9 µM), without a hit: top-dose activity change, negative = inhibition, actives largely listed as inhibitors; Lassa virus pseudotype entry inhibition, cell reporter; control for the full effect not named in the record; hit rate 1.2% among 300,000; active means well fitted inhibition curve with a large enough effect; inconclusive means small, poorly fitted or top-dose-only effect, or effect the other way; inactive means flat fitted curve, though single readings scatter; tested in HEK293 cells; further: on the % scale 0 is the no-effect control and ±100 the full control effect; nearly all actives have a fitted effect of over 50% in size; luciferase read-out
NS1 function inh = influenza NS1 inhibition. AID 2326. hit rate 0.4% among 270,000. Potency, µM (doses to about 46.1 µM), for the others: at the highest dose activity, positive = more growth. S. cerevisiae slowed by influenza A NS1, growth recovery by OD600; active means well fitted rising curve with a large enough effect; inconclusive means small, poorly fitted or top-dose-only effect; inactive means no such curve, though single readings can be large or run the other way; further: nearly all actives have a fitted effect of over 50% in size
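In this qHTS, NS1 from influenza A is expressed in budding yeast, where it slows growth. Cells are switched from glucose to 2% galactose medium (pH 6.0, -URA), treated with compound, and growth recovery is read at OD600.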
Cruzain noTriton = inhibitors of Trypanosoma cruzi cruzain without detergent. P25779. Potency, µM, for inactives: max response, negative = inhibition, usual class: inhibitors. AID 1476. purified cruzain, Z-FR-AMC fluorescence, no detergent. hit rate 2.3% among 200,000;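 further: plate controls were enzyme without inhibitor for no effect and buffer without enzyme for full effect; nearly all actives have a fitted effect of over 40% in size; top concentration of the series not given in the record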
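Purified cruzain at 1.5 nM, pre-incubated 15 min with compound at room temperature in 100 mM sodium acetate pH 5.5, 5 mM DTT, 0.00005% Triton X-100. Reaction started with 2 uM Z-FR-AMC; AMC fluorescence increase over 60 s gives rate.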
RE007 growth inh = less growth of the S. pombe RE007 Vpr strain | S. pombe RE007 Vpr strain, BacTiter-Glo ATP luminescence, 24 h; control for the full effect not named in the record | Potency, µM (top dose mostly 92.2 µM), for inactives: top-dose activity change, negative = less growth | hit rate 0.21% among 360,000 | AID 651644; active = well fitted falling curve with a large enough effect; inconclusive = small, poorly fitted or top-dose-only effect; inactive = no such curve, though single readings can be large or run the other way;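 further: on the % scale 0 is the no-effect control and ±100 the full control effect; nearly all actives have a fitted effect of over 50% in size; the assay follows cell death caused by Vpr and the record does not say whether a fall means rescue or toxicity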
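Fission yeast RE007 carrying one integrated HIV-1 vpr copy, seeded at OD 0.01 in PMG+AL medium with 23 nL pinned compound. Grown 24 h at 30 degrees; viability read by BacTiter-Glo luminescence after 5 min.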
An asterisk follows results filed as active; ? = inconclusive; . = not tested or not shown; & = joins results of further samples; [ ] = remark or other dose. Unless noted, the call rests on the fitted dose curve; in most records, active means well fitted curve in the direction sought with a large enough effect; inconclusive means small, poorly fitted or top-dose-only effect, or another doubt; inactive means no such curve, though single readings can be large; an effect the other way counts as inactive or inconclusive. Potency means the concentration at half of the fitted maximal effect.

SMILES | Cruzain Triton | SARS PLpro yeast | StopGo reporter | Marburg entry inh | LASV entry inh | NS1 function inh | Cruzain noTriton | RE007 growth inh
C=CCNC(=O)C1CCN(S(C)(=O)=O)CC1 | 1.3% | 5% | 4% | 16% | ? | 5% | -9% | -2%
O=S(=O)(NCc1csc(-c2cccnc2)n1)c1ccc(Cl)s1 | -0.9% | -13% | -1% | . | . | 0% | -2% | 7%
O=C(NCCC1=CCCCC1)Nc1ccc2nsnc2c1 | . | 1% | 10% | ? | ? | -2% | . | 0%
Oc1c(C=C2N=c3ccccc3=N2)sc(=S)n1-c1ccc2ccccc2c1 | . | -1% | -17% | . | . | -28% | . | -3%
CCCCn1c(SCC(=O)c2ccccc2)nc2c(sc3ccccc32)c1=O | 1.8% | . | -19% | . | 5%[46.1 µM] | . | -7% | .
CC(C)(C)c1cc(CSC(=S)NC2CCS(=O)(=O)C2)c(Br)c(C(C)(C)C)c1 (centres undefined) | . | -1% | 16µM* | ? | ? | 1% | . | -4%
Cc1nonc1OCCN1CCN(c2ccccc2[N+](=O)[O-])CC1 | . | -4% | -21% | -3%[46.1 µM] | 2% | . | . | -4%
O=C(COC(=O)Cc1ccccc1F)Nc1cccc(F)c1 | . | -4% | 4% | 1%[46.1 µM] | 15% | . | . | -11%
CCC(=O)Nc1cc(-c2cc3ccccc3oc2=O)ccc1OC | . | -1% | 48%[activator] | -23% | -13% | -12% | . | -8%
CCCNC(=O)Cn1c(-c2ccc(F)cc2)cc(C(=O)OCC)c1C | . | -5% | -7% | 9%[46.1 µM] | 12% | . | . | 16%
COC(=O)c1c(NC(=O)CCCC(=O)O)sc2c1CCC2 | -4.5% | -2% | -14% | -2% | -23%[14.3 µM] | -86% | -11% | -13%
CC1(C)Cc2c(sc(NC(=O)C(=O)NCC3CCCO3)c2C(N)=O)CO1 (centres undefined) | . | -4% | -12% | . | . | -10% | . | 3%
CC1(C(=O)NCC2CCCO2)Oc2cccnc2NC1=O (centres undefined) | . | 0% | -12% | 16%[46.1 µM] | 7% | 1% | . | 10%
Cc1cc(=O)oc2cc(OC(=O)C3CCN(C(=O)c4ccc(F)cc4)CC3)ccc12 | . | -17% | -10% | -3% | 2% | . | . | 7%
O=c1[nH]c(=O)n([C@H]2C[C@H](O)[C@@H](CO)O2)cc1/C=C/Br | 3.1% | . | . | -39%&-39% | . | -3% | ? | .
CCC(C(=O)NC(C)CCc1ccco1)n1nc(C)n2c(cc3occc32)c1=O (centres undefined) | -3.1% | 5% | 3% | -5% | -6% | 3% | -6% | 2%
Cc1ccc(C2=NCC(=O)N(CC(=O)N3CCCCC3)c3sc(C)c(C)c32)cc1 | 1.9% | 2% | -7% | -15% | ? | -16% | 4% | -5%
S=c1[nH]nc(C23CC4CC(CC(C4)C2)C3)n1Cc1ccco1 | -4.1% | 16% | -23% | -2% | -7% | -47% | -14% | 4%
COc1ccc2nc(Nc3nc(CSc4ccc(C)cc4)cc(=O)[nH]3)nc(C)c2c1 | . | 1% | 4% | -1%[46.1 µM] | 8% | 7% | . | 3%
CCN(CC)CCN1C(=O)C2C(C(=O)Nc3cccc(C)c3)C3C=CC2(O3)C1C(=O)NC1CCCC(C)C1C (centres undefined) | . | 0% | 22% | ? | 1%[46.1 µM] | 7% | . | -9%
O=C(Nc1ccc(-c2csc(Nc3ccccc3)n2)cc1)c1cc([N+](=O)[O-])cc(C(F)(F)F)c1 | . | 2% | 25µM* | . | . | ? | . | 26%
Cc1ccc(C)c(N(CC(=O)NC2CCCC2)C(=O)c2cc3cc4cc(C)ccc4nc3s2)c1 | 2.9% | 2% | . | -20% | -9% | 5% | ? | 13%
COc1cccc(C2C(C(=O)Nc3ccc(C)cc3C)=C(C)Nc3c(C(=O)Nc4cccc(C)c4)cnn32)c1OC (centres undefined) | -5.7% | . | -7% | . | -18%[46.1 µM] | . | -1% | .
Cc1c(C(=O)N2CCCC2)oc2c1-c1nn(CC(=O)NCc3ccc(OC(C)C)cc3)cc1CC2 | -3.7% | . | 28µM* | . | ? | . | 21% | .
O=S(=O)(NCCCN1CCN(c2ccccc2F)CC1)c1cccc2cccnc12 | -5.1% | 6% | -13% | . | . | -7% | -13% | 9%
Next structures:
SMILES | Cruzain Triton | SARS PLpro yeast | StopGo reporter | Marburg entry inh | LASV entry inh | NS1 function inh | Cruzain noTriton | RE007 growth inh
O=c1oc2ccccc2cc1-c1csc(Nc2nc3ccc(F)cc3s2)n1 | -5.8% | 15% | . | 7% | 1% | 16% | 6% | .
Cc1cccc(C(=O)NC(=S)Nc2ccc(S(=O)(=O)N3CCN(C)CC3)cc2)c1 | -2.9% | -6% | -12% | ? | -1% | -1% | -1% | -4%
COc1cccc(N2C(=O)CC(N3CCN(S(=O)(=O)c4ccccc4)CC3)C2=O)c1 (centres undefined) | -0.5% | -21% | -15% | 7% | 2% | -7% | 17% | -12%
COc1c(Cl)cc(Cl)cc1CNCCNCCO | 7.4% | 1% | . | -24% | -13% | 1% | 6% | -11%
CN(C)c1ncc(S(=O)(=O)c2ccccc2)c(-c2ccc(Cl)cc2Cl)n1 | -1.7% | -15% | -28% | -8% | -8% | 4% | -8% | 6%
COc1ccc(CC(=O)NC(CC(=O)O)c2ccc(OC)cc2)cc1 (centres undefined) | 0.4% | -1% | -10% | 3% | 14% | 2% | 0% | 7%
Cc1cccc(NS(=O)(=O)c2ccc(C)c(C(=O)NCC(c3cccs3)N(C)C)c2)c1 (centres undefined) | . | -4% | 6% | ? | -30% | . | . | -11%
Cc1cccc(C)c1NC(=O)CCCN1C(=O)C(c2ccccc2)Oc2cccnc21 (centres undefined) | . | -3% | -13% | . | . | -5% | . | 8%
COC(=O)C12OCC34C(CC5C(C)=C(O)C(=O)CC5(C)C3C(O)C1O)OC(=O)C(OC(=O)C=C(C)C)C24 (centres undefined) | . | . | -42% | . | . | . | . | -29%
CCOC(=O)C1CCCN(C(=O)/C=C/c2ccc(Cl)cc2)C1 (centres undefined) | . | -1% | -22% | 2% | ? | -9% | . | -3%
Cc1ccc(NC(=O)CSc2nc(C)c(Cc3ccccc3)c(=O)[nH]2)cc1C | 2.9% | -1% | 2%&-6% | ? | 0%[46.1 µM] | . | ? | 1%
O=C(O)CCC(=O)/C=C/c1ccccc1 | . | 0% | -6% | -18%[46.1 µM] | 1%[46.1 µM] | -8% | . | 37%
Cc1ccc(OCC(=O)Nc2ccc3c(c2)nc2n3CCOC2)cc1 | -1.5% | -8% | 0% | 8% | 3% | -8% | -2% | -28%
CCn1cc(C(=O)NCCCN2CCCC(C)C2)c(=O)c2cc(S(=O)(=O)N(C)C3CCCCC3)ccc21 (centres undefined) | -1.8% | 3% | 29%&27% | 4%[46.1 µM] | 25%[46.1 µM] | 0% | 3% | -1%
COC(=O)C1Cc2c([nH]c3ccccc23)CN1C(C)=O (centres undefined) | . | -1% | -4% | 11%[46.1 µM] | 17%[46.1 µM] | -5% | . | 9%
O=C(CN1CCSc2ccccc21)NCc1ccccc1F | -6.3% | . | 42%[activator] | . | 2%[46.1 µM] | . | -3% | .
CCCS(=O)(=O)N1CCCC(C(=O)NCCN2CCOCC2)C1 (centres undefined) | 5.5% | 4% | -4% | -3% | 13% | 3% | -3% | -11%
COc1ccc(OC)c(N(C)S(=O)(=O)c2ccc3c(c2)N(C(C)=O)CCO3)c1 | . | 1% | 4% | . | . | 0% | . | -10%
Cn1c(=O)n(C)c2cc(N3CCCC3)c(NC(=O)c3cccc(F)c3)cc21 | . | 4% | -20% | . | . | -13% | . | -11%
O=C(Nc1ccccc1)C1COc2ccccc2O1 (centres undefined) | . | -10% | 66%[activator] | -7% | 14% | 5% | . | -16%
CCOc1ccc(CC(=N)C2=C(O)CC(C)(C)CC2=O)cc1OCC | -1.9% | 18% | -9% | -10% | 3% | -1% | 7% | 24%
Cc1cc(NC(=O)CSc2nnc(COc3cccc(C)c3C)n2Cc2ccco2)no1 | 1.5% | -3% | -24% | 16% | 11% | 4% | -5% | 2%
O=C(CSc1nnc2scc(-c3ccccc3)n12)c1ccc2c(c1)OCCO2 | -1.4% | 2% | -21% | 3% | . | -15% | -12% | -4%
CCOc1ccc(/C=N/NC(=O)c2cc3ccccc3cc2OC)cc1 | . | -6% | -15% | . | . | 7% | . | -12%
Cc1ccc2nc(CSc3nnc(NC(=O)C(C)C)s3)cc(=O)n2c1 | 1.4% | . | -28% | . | 26%[46.1 µM] | . | -12% | .
(cont.)
SMILES | Cruzain Triton | SARS PLpro yeast | StopGo reporter | Marburg entry inh | LASV entry inh | NS1 function inh | Cruzain noTriton | RE007 growth inh
COc1ccc(Nc2ncnc3sc(C)cc23)c(OC)c1 | . | -7% | 53%[activator] | 4% | ? | -22% | . | 1%
c1ccc2c(c1)oc1c(Nc3ccc4c(c3)OCCO4)ncnc12 | -8.3% | -1% | -24% | ? | ? | -31% | -11% | 4%
COC(=O)C1(C#N)C(c2ccccc2)C1(C(=O)OC)C(=O)OC (centres undefined) | 1.7% | 1% | -8% | 2% | 7% | -2% | -9% | 3%
Cc1cc(NCC(C)C)n2ncnc2n1 | 2.0% | -1% | -14% | 15% | 12% | 7% | -2% | 22%
CCOCCNC(=O)c1ccc2c3c(cccc13)CC2 | 5.6% | -6% | 9% | 7% | -8% | ? | 27% | -22%
COC(=O)C1=C(C)NC(C)=C(C(=O)OC)C1c1ccco1 | . | -1% | -5% | . | . | -3% | . | 14%
Cc1cc2c(cc1C)/C(=N/NC(=O)c1ccccn1)CCC2 | . | -1% | 7% | ? | 9%[46.1 µM] | -6% | . | -19%
O=C(NCC(=O)N1CCCCCC1)c1ccc(OC(F)F)cc1 | . | 0% | 9% | . | . | -2% | . | 1%
CCc1noc(C)c1C(=O)Nc1nc(-c2ccc(F)cc2)c(C)s1 | . | -7% | ? | . | . | 10% | . | -11%
CCOc1ncccc1C(=O)OCC(=O)c1ccc(OC)c(OC)c1 | . | -4% | 1% | 25%[46.1 µM] | 19%[46.1 µM] | . | . | 4%
Cc1nn(CC(=O)Nc2ccc(Cl)cc2Cl)c(=O)c2ccccc12 | . | 0% | -6% | . | . | 10% | . | 0%
